# MgrA DNA FP: S. aureus MgrA activity modulators, primary screen, biochemical, S. aureus Newman, fluorescence polarization. MgrA-DNA binding. inhibition, %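 (about 10 µg/mL by stock and volumes)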. 0.13% of 84,000 active;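 active means above 50% in either of two replicates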;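 further: 0% = protein plus DNA without compound and 100% = DNA alone without protein; higher means less MgrA bound to DNA so lower polarization; one replicate is shown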
# Sa helicase inh: inhibitors of S. aureus replicative helicase, primary screen, biochemical, fluorescence unwinding readout. replicative DNA helicase (DnaC/DnaB), Staphylococcus aureus. inhibition, %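 (tested at about 80 µM)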. purified S. aureus helicase, fluorescence unwinding assay; about half of the hits fall short of the stated cut. AID 485395, 2010. 0.05% of 120,000 active;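 active means both duplicates at 50% or more, or one of them with a favoured structure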;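 further: 0% = mean of negative control wells and 100% = mean of positive control wells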
# * marks the source's active call; other numbers are inactive results; nt = no result given; & = joins results of further samples. A portion of the library; count on the stated rates, not on these rows.
entry | SMILES | MgrA DNA FP | Sa helicase inh
1 | COc1ccc(-c2cc(=Nc3ccc(OC)c(OC)c3)c3ccccc3o2)cc1 | 0.0 | 11
2 | COC(=O)c1ccc(CNC(=O)C(NC(C)=O)C(C)C)cc1 (stereo unspecified) | nt | 12
3 | Cc1cc2c(c(=O)o1)C(c1ccccc1OCc1ccccc1Cl)C(C#N)=C(N)O2 (stereo unspecified) | -1.6 | nt
4 | COc1cccc(NC(=O)CSc2ncccn2)c1 | 2.2 | 18
5 | O=c1c2ccccc2n2nncc2n1Cc1ccccc1F | nt | 5
6 | CC(=O)Oc1ccc2c(c1)NC1(OC(C)=O)C(=O)c3ccccc3C21OC(C)=O (stereo unspecified) | 2.1 | -13
7 | COc1nc(C)cc(C(F)(F)F)c1C#N | -11 | nt
8 | O=C1/C(=C/c2ccccc2F)Cc2ccccc21 | -4.5 | 2
9 | C=CCn1c(CC(=O)Nc2ccccc2Cl)nnc1SCC(=O)Nc1nccs1 | 1.1 | 23
10 | O=C1c2ccc(-c3nc4ccccc4c(=O)o3)cc2C(=O)N1Cc1ccc(Cl)cc1 | 2.0 | 12
11 | O=C(OCC(=O)N1CCCCC1)c1ccccc1OCCOc1ccccc1 | nt | -10
12 | CC(C)(C)NC(=O)CCCN1C(=O)c2ccccc2C1=O | -4.2 | 8
13 | CC1=C(c2ccc(C)cc2)S(=O)(=O)NC1=NCc1ccccn1 | 4.2 | 12
14 | N=C(N)SCc1nc(-c2ccc(Cl)cc2)no1 | 3.0 | nt
15 | CCCCN1COc2c(c3c(C(=O)OCC)c(C)oc3c3ccccc23)C1 | nt | -6
16 | O=C(OCC(=O)N1CCN(C(=O)c2ccco2)CC1)c1ccccc1 | nt | 4
17 | O=C(COC(=O)Cc1coc2ccc3ccccc3c12)Nc1nnc(-c2ccccc2)o1 | nt | -9
18 | CCOc1ccc(C(=O)N2C(C)CCCC2C)cc1OCC (stereo unspecified) | -4.0 | 13
19 | CCCCn1c(C(Cc2ccccc2)NC(=O)COC)nc2ccccc21 (stereo unspecified) | nt | 4
20 | CSCCNC(C)=O | -0.8 | 5
21 | O=C1c2ccccc2NC(c2ccc(Br)cc2)N1c1ccc(Cl)cc1 (stereo unspecified) | 2.1 | nt
22 | Cc1cc(Br)ccc1NC(=O)CN1CCCCC1 | -2.7 | nt
23 | Cc1ccc2cnn(CC(=O)NCCCN3CCCC3=O)c2c1 | nt | -3
24 | CC(=O)OCCSc1nc(N(C)C)nc(N(C)C)n1 | -0.9 | 9
25 | CSCCC1NC(=O)NC1=O (stereo unspecified) | 0.8 | nt
26 | CC(O)(C#Cc1ccccc1)c1ccc(N2CCCCC2)c(F)c1 (stereo unspecified) | -0.5 | 6
27 | CC1CCCCN1S(=O)(=O)Cc1ccccc1 (stereo unspecified) | 2.1 | -16
28 | NC(=O)Cc1cc(=O)oc2cc(O)ccc12 | 0.6 | 2
29 | O=C(O)c1nc(-c2ccccc2)n(-c2cccc(C(F)(F)F)c2)n1 | -1.9 | -16
30 | N#CC1=C2CCCCC2C(c2ccco2)C(C#N)(C#N)C1=O (stereo unspecified) | 15 | -21
31 | CC(=O)c1ccc(NC(=O)CSc2nc3ccc([N+](=O)[O-])cc3[nH]2)cc1 | 1.6 | nt
32 | CCN(CC)C(=S)Oc1c(Cl)cccc1Cl | -0.5 | nt
33 | O=C1CC(NC(=O)N2CCCc3ccccc32)CN1c1ccccc1 (stereo unspecified) | nt | 7
34 | CCN(CC)CCN(C)C1C2CC3CC(C2)CC1C3 (stereo unspecified) | -3.2 | 7
35 | CC1CCCCN1CC(=O)Nc1cc(C(C)(C)C)nn1-c1ccccc1 (stereo unspecified) | nt | 16
36 | O=c1oc2ccccc2cc1-c1cn2c(n1)sc1ccccc12 | 2.6 | 2
37 | CC(C)CCNC(=O)c1cn(-c2ccccc2)nc1-c1cccs1 | -2.5 | -5
38 | Cc1nc(-c2ccccn2)nc(SCC(=O)c2ccccc2)c1Cl | 1.5 | nt
39 | N#Cc1c(N)sc2c1CCN(c1nc(CN3CCOCC3)nc3scc(-c4cccs4)c13)C2 | nt | -20
40 | Cc1nc2ccccc2n1CC(=O)OCc1ccc(Br)cc1 | -1.1 | -2
41 | O=C(CCc1nc2ccccc2s1)OC1CCCCC1=O (stereo unspecified) | nt | 7
42 | COC(=O)C(NC(=O)Nc1ccc(C(C)(C)C)cc1)C(C)C (stereo unspecified) | 5.5 | 17
43 | CCOC(=O)c1c(SC)nc2ccc(Cl)cc2c1N1CCOCC1 | -0.9 | nt
44 | COc1cccc(C(=O)Cn2c(=O)n(CCCS(=O)(=O)C3CCCCC3)c(=O)c3ccccc32)c1 | 0.2 | 6
45 | O=C(C1CCCCC1)N1CCN(c2ncccn2)CC1 | -1.4 | nt
46 | CN(Cc1ccccc1)C(=O)CSc1c2c(nc3ccccc13)CCC2 | -0.6 | 12
47 | COc1ccc(CCn2c(=S)[nH]c3nccnc3c2=O)cc1OC | nt | -24
48 | Cc1cc(C)c(OCCCNC(C)(C)C)c(Cl)c1 | nt | -8
49 | O=C(O)c1cnn(-c2ccccc2)c1C(F)(F)F | -4.2 | nt
50 | CCOC(=O)c1cc(C(=O)NCc2ccccc2)c(=O)[nH]c1C | 9.6 | -9

# (more compounds)
entry | SMILES | MgrA DNA FP | Sa helicase inh
51 | NC(=O)C(F)(F)C(F)(F)C(F)(F)C(F)F | nt | 2
52 | CCN(c1ccccc1)S(=O)(=O)c1ccc2c(c1)OCCN2C(C)=O | 0.7 | -9
53 | O=C(CSc1ncccc1C(F)(F)F)c1cccc(C(F)(F)F)c1 | -0.1 | nt
54 | COC(=O)C(Cc1ccc(O)cc1)NC(=O)c1ccccc1OC (stereo unspecified) | 1.4 | -11
55 | Cc1cc(C)c2nc(N3CCC(C(=O)NCCCN4CCCCC4)CC3)sc2c1 | nt | 10
56 | C=CCN(CC(=O)N1CCCc2ccccc21)S(=O)(=O)c1cccs1 | nt | -5
57 | CC1=C(C)CC2(SC1)C(=O)N(c1ccccc1)N=C2N (stereo unspecified) | nt | 8
58 | Cc1ccc(/C=N/n2cnnc2)cc1 | nt | -28
59 | O=C1CC(=O)CC(c2ccc(F)cc2)C1 | 0.0 | nt
60 | O=[N+]1C2=C(CCCC2)N([O-])C12CCCC2 | -1.8 | 18
61 | CC(C)c1ccc(S(=O)(=O)/N=C(\N)CSc2ccc(Cl)cc2)cc1 | -0.6 | nt
62 | CCOC(=O)C1CCN(C(c2cccnc2)c2nnnn2Cc2ccccc2)CC1 (stereo unspecified) | -1.7 | -3
63 | Cc1nnc(NC(=O)Cn2c(=O)sc3ccccc32)s1 | nt | 2
64 | O=C1CC(c2ccc(S(=O)(=O)NC3CCCCC3)cc2)CN1 (stereo unspecified) | -2.5 | -2
65 | Nn1c(SCc2ccccc2)nc2ccccc21 | -2.1 | 1
66 | CC(C#N)OC(=O)c1ccccc1Sc1ccccc1C#N (stereo unspecified) | nt | -16
67 | CCCCS(=O)(=O)Nc1nccs1 | nt | -3
68 | COc1ccc(N=C2SCC(=O)N2C)cc1 | -3.5 | 3
69 | N#C/C(=C\c1cccs1)c1csc2ccc(Cl)cc12 | 1.0 | nt
70 | CCOC(=O)c1c(-c2ccccc2)oc2ccc(OCC(=O)c3ccc(Br)cc3)cc12 | 3.8 | nt
71 | CCN(CC)C(=O)N1CCN(C(=O)N(CC)CC)CC1 | -0.5 | -12
72 | O=C(NC1CCCC1)c1ccccc1C(F)(F)F | nt | 3
73 | COc1ccc(N=C2SC(C(=O)Nc3ccc(C(=O)O)cc3)CC(=O)N2Cc2ccc3c(c2)OCO3)cc1 (stereo unspecified) | 3.0 | nt
74 | Nc1ncnc(SCc2c(F)cccc2Cl)n1 | -0.9 | nt
75 | CN1C/C(=C\c2cc(Br)cs2)C(=O)/C(=C/c2cc(Br)cs2)C1 | 3.2 | 5
76 | CCOc1ccc(CN(C)CCc2ccccn2)cc1 | nt | 13
77 | CC(=O)n1c(SCC(=O)NC2=NN=C(c3ccc(C)cc3)CS2)nc2ccccc21 | nt | 14
78 | Cc1csc(Cc2nc3ccccc3n2C)n1 | nt | -6
79 | Cc1ccc(/C=C2/SC(=O)N(CCC(=O)O)C2=O)cc1 | nt | -6
80 | CC1=C/C(=C/N(C)c2ccccc2)C(=O)S1 | 3.2 | 8
81 | CCCS(=O)(=O)N1N=C(c2ccc(C)cc2)CC1c1ccco1 (stereo unspecified) | 19 | -93
82 | O=C(O)CC(C(=O)O)c1c[nH]c2ccccc12 (stereo unspecified) | nt | 13
83 | CC1CCCCN1S(=O)(=O)c1cccs1 (stereo unspecified) | 3.0 | -17
84 | NCC(O)CN(c1ccccc1)c1ccccc1 (stereo unspecified) | 0.2 | 19
85 | Cc1ccc(C2=C/C(=C\c3cccnc3)C(=O)O2)cc1 | nt | -28
86 | CCCOc1ccccc1/C=N/NC(=S)Nc1cccc(F)c1 | 0.4 | nt
87 | O=C1CSCC(=O)N1c1cccc2ccccc12 | 2.5 | nt
88 | CCOc1ccc(C2C3=C(CCCC3=O)NC3=C2C(=O)CCC3)cc1 | 1.3 | 5
89 | Cc1cc(F)c(F)c(C(=O)N2CCCCCC2)c1Cl | 1.6 | -15
90 | O=C(Cc1ccccc1)Nc1ccc(-c2cn3ccsc3n2)cc1 | nt | 7
91 | CSc1nc(-c2ccccc2)cn1-c1cccc(Cl)c1 | -0.2 | -13
92 | CCN(CC)C(=O)N1CCN(c2ccccc2)CC1 | -0.2 | 7
93 | O=C(CCc1ccccc1)Nc1ccccc1N1CCOCC1 | nt | -14
94 | CC(C(=O)Nc1ccc(Cl)cn1)N(C)Cc1c(F)cccc1Cl (stereo unspecified) | nt | 6
95 | O=C1CC(N2CCSC2=S)C(=O)N1c1cccc(Cl)c1Cl (stereo unspecified) | 0.3 | -15
96 | COc1ccc2ccccc2c1CN1CCN(C(=O)c2ccncc2)CC1 | nt | 5
97 | Clc1ccc(-c2nnnn2-c2ccc(Cl)cc2)cc1 | -0.6 | nt
98 | O=C(O)C1Cc2[nH]cnc2C(c2ccccc2)N1 (stereo unspecified) | -1.0 | -26&-5
99 | Cc1c(C)n(CC(O)CN2CCN(CC(O)Cn3c(C)c(C)c4ccccc43)CC2)c2ccccc12 (stereo unspecified) | nt | 7
100 | COc1ccccc1OCC(=O)NN | nt | 23

# The list goes on:
entry | SMILES | MgrA DNA FP | Sa helicase inh
101 | N#Cc1ccc(Cl)cc1NC(=O)COC(=O)c1cc(-c2ccco2)nc2ccccc12 | nt | -14
102 | CC(=O)Oc1ccc2c(=O)c(-c3nc4ccccc4s3)c(C)oc2c1 | nt | -12
103 | CCC1Oc2ccc(C)cc2N(CC(=O)NC(C)C)C1=O (stereo unspecified) | 1.9 | -8
104 | O=C(Nc1ccc(Cc2ccc(NC(=O)C3CC3)cc2)cc1)C1CC1 | -2.3 | 9
105 | CCCCn1c(C)cc(/C=C(\C#N)C(=O)O)c1C | nt | 2
106 | O=C(COc1nc2ccccc2s1)N1N=CCC1c1ccccc1 (stereo unspecified) | -2.2 | 8
107 | Cc1cc(-c2ccc(C(C)C)c(S(=O)(=O)NC(C)(C)C)c2)on1 | nt | 18
108 | CCc1nn(C(C)C(=O)NCCc2ccc(OC)c(OC)c2)c(=O)c2cc3occc3n12 (stereo unspecified) | nt | -10
109 | CCCC1C2C(=O)N(c3ccccc3)C(=O)C2ON1c1ccc(Cl)c(Cl)c1 (stereo unspecified) | 0.1 | nt
110 | Cc1ccc(OCC(O)CN2CCC(C)CC2)c(C)c1 (stereo unspecified) | 0.5 | 10
111 | COC(=O)c1sc(NC(=O)c2csc3c2CCCC3)c(C#N)c1C | -0.9 | -3
112 | O=C(NCc1ccccc1CN1CCCC1)c1csc(-c2cccs2)n1 | nt | -3
113 | Cc1noc(C)c1C(=O)N=c1sc2ccccc2n1C | nt | 0
114 | O=C(NC(=S)Nc1ccc(Oc2cc(C(F)(F)F)cc(C(F)(F)F)c2)cc1)c1ccccc1 | 1.0 | nt
115 | Cc1cc(OC(=O)NC(=O)C(F)(F)F)c(C(C)C)cc1I | 0.2 | -14
116 | C=CCN(C(=O)CCc1c(C)nn(-c2ccccc2)c1C)c1nc2c(s1)CCCC2 | nt | 9
117 | Cc1ccc2c(cnn2C(=O)CCCC(=O)NC2CCCC2)c1 | 0.9 | 0
118 | CCOC(=O)C1=C(CNCc2ccccc2)NC(=O)NC1c1ccccc1 (stereo unspecified) | 0.5 | 9
119 | O=C(C1=COCCO1)N1c2ccccc2Sc2ccccc21 | -0.7 | 3
120 | CC1CCCC(C)N1CC(O)Cn1c2ccccc2c2ccccc21 (stereo unspecified) | -5.0 | 10
121 | COc1cccc(C(=O)Nc2ccc(-c3nc4ncccc4o3)cc2)c1 | 2.9 | 7
122 | COc1cc(-c2n[nH]c(=S)n2-c2ccccc2Cl)cc(OC)c1OC | 0.2 | nt
123 | CCOc1ccc(-n2c(C)cc(/C=N/N(C)C)c2C)cc1 | nt | -16
124 | Fc1ccccc1-c1cn2ccsc2n1 | -5.2 | nt
125 | COC(=O)c1sc(N)c(C(=O)OC)c1COC(=O)c1ccc2c(c1)C(=O)N(Cc1ccco1)C2=O | nt | -14
126 | O=C1Nc2ccccc2C(O)(C(=O)NCc2ccccc2)N1c1ccccc1 (stereo unspecified) | nt | 18
127 | O=c1[nH]c(-c2cccc(Cl)c2)nc2ccc(N3CCCC3)cc12 | -3.1 | nt
128 | O=C(NCCO)c1ccccc1-c1ccccc1 | -2.0 | 7

# Screens as filed in PubChem.
